PINK1 expr mod: A Quantitative High throughput Screen to Identify Chemical Modulators of PINK1 Expression; 410,000 compounds, 0.2% hits; PINK1 immunofluorescence, high-content cytometry, 24 h; Potency, µM (titrated, usually from 76.6 µM), inactives show top-dose activation (PINK1 increase), most hits filed as activators; active = well fitted activation curve with a large enough effect; inconclusive = small, poorly fitted or top-dose-only effect; inactive = flat fitted curve, though single readings scatter; cell line not stated here;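 also: potency is read from the fitted curve at half-maximal effect; % of control where 0% means no effect; nearly all actives have a fitted effect of over 65% in size; a mitochondrial uncoupler was the plate control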
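Measures PINK1 amount and localization on or inside mitochondria by immunofluorescence. Stable cells get compounds at 5 concentrations for 24 hours before fixation and staining; CCCP controls included.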
TRPML1 ag: qHTS for Agonists of the Human Mucolipin Transient Receptor Potential 1 (TRPML1) | TRPML1-expressing cells, Ca2+ dye fluorescence, FDSS; host cell line not named in the record; reference of the full effect not given here | Mucolipin-1 (Homo sapiens), Q9GZU1 | activation, % (test concentration not listed) | 410,000 compounds, 0.12% hits; in the data active = activation above about 50%; inconclusive = about 30% to 50%; inactive = below about 30%; also: 0% is about no effect; the text of the record puts the active cut at 80%
Target sequence (Q9GZU1 whole entry, looked up): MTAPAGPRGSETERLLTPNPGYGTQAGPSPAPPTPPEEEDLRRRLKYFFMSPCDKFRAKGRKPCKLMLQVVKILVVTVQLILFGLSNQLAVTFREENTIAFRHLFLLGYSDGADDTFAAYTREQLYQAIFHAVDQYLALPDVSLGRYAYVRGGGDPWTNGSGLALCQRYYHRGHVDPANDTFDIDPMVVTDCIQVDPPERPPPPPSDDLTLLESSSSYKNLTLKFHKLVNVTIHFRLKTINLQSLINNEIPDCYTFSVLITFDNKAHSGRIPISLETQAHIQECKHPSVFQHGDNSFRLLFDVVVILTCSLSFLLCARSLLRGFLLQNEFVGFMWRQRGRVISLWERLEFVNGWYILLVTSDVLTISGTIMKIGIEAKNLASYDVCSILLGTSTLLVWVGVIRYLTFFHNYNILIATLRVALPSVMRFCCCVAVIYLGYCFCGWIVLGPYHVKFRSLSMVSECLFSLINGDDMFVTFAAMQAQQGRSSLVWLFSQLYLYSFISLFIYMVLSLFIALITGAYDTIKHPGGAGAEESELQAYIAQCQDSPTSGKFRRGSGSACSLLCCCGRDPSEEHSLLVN
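Tet-induced TRPML1-DL cells, 1,500 per well, cultured overnight, were loaded with a no-wash Ca2+ dye for 45–90 min. Calcium fluorescence was recorded on the FDSS for 110 s after compound addition, before the EC80 agonist (4 uM 54-4) was added.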
D2 PAM: Beta-Arrestin HTS for Positive Allosteric Modulators of the Human D2 Dopamine Receptor: Potentiators. D(2) dopamine receptor (Homo sapiens), P14416. DiscoveRx D2 beta-arrestin cells, luminescence, 90 min; 100% = 57 uM dopamine signal. potentiation, % (no concentration beside the values). 360,000 compounds, 0.23% hits. AID 624464, 2012; active = potentiation of 50% or more; inconclusive = 30% to 50%; inactive = 30% or less;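 also: compound concentration not given in the record; tested on top of an EC20 dose of dopamine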
Target sequence (P14416 whole entry, looked up): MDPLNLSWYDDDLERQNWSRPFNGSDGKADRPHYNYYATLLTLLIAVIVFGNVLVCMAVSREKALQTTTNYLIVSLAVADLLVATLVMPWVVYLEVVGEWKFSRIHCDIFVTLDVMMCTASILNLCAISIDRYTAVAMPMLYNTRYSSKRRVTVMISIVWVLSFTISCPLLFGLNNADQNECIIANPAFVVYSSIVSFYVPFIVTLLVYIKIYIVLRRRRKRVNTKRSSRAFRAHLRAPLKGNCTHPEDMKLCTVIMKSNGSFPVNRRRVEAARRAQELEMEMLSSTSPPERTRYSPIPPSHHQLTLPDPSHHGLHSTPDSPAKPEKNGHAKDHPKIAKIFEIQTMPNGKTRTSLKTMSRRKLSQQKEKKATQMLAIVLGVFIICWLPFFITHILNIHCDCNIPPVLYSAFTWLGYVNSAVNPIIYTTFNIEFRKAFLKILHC
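D2 cells co-treated with compound plus 50 nM dopamine (EC20) for 90 min at 37 deg C to detect potentiation. Beta-arrestin recruitment was read as enzyme-fragment luminescence after 1 h at ambient temperature. Full response was set by 57 uM dopamine.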
Six1-Eya2 blk: qHTS Assay for Inhibitors of the Six1/Eya2 Interaction; AlphaScreen GST-Six1/His-Eya2 binding, biochemical; active compounds read low; control for the full effect not named in the record; activity change, % (no concentration beside the values); 360,000 compounds, 0.56% hits; in the data active = activity change below about -65%; inconclusive = about -30% to -65%; inactive = above about -30%; also: % is scaled to controls: 0 for no effect and ±100 for the full control effect
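Six1/Eya2 binding was read as AlphaScreen signal after compounds were pinned into GST-Six1 plus His-tagged Eya2 (5X stock 250/500 nM) in pH 8.0 Tris/NaCl/TCEP buffer, beads added, then incubated 1 h, 37 C, dark.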
TRPML1 blocker: qHTS for Inhibitors of the Human Mucolipin Transient Receptor Potential 1 (TRPML1); AID 624415, 2012; activity change, negative = inhibition, % (concentration not given with the values); TRPML1-inducible cells, Ca2+ dye fluorescence, FDSS; active compounds read low; inhibition of EC80 agonist-evoked calcium signal; Mucolipin-1 (Homo sapiens), Q9GZU1; 390,000 compounds, 0.02% hits; in the data active means activity change below about -50%; inconclusive means about -30% to -50%; inactive means above about -30%;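 also: stimulus is agonist 54-4 at its EC80 concentration; % is scaled to controls: 0 for no effect and ±100 for the full control effect; the text of the record puts the active cut at -80%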
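TRPML1-DL cells, Tet-induced overnight (~16 h, 37 °C) at 1,500 cells/well, were loaded with Ca8 no-wash dye plus quencher for 45-90 min at room temperature. Compounds were pinned during FDSS kinetic reading; agonist 54-4 at EC80 (4 uM final) then added.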
D2 ag: Beta-Arrestin HTS for Positive Allosteric Modulators of the Human D2 Dopamine Receptor: Agonists; D(2) dopamine receptor (Homo sapiens), P14416; DiscoveRx PathHunter D2 beta-arrestin, luminescence, 90 min; 100% = 57 uM dopamine signal; activation, % (no concentration beside the values); 360,000 compounds, 0.084% hits; AID 624465, 2012; in the data active = activation above about 40%; inconclusive = about 15% to 40%; inactive = below about 15%; also: compound concentration not given in the record; the text of the record calls up to 30% inactive
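Agonist mode: compounds alone added to overnight-plated D2 PathHunter cells for 90 min at 37 C, with 57 uM final dopamine (EC100) defining full response. Beta-arrestin recruitment detected by chemiluminescent reagent, read after 1 h at ambient temperature.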
* marks the source's active call; other numbers are inactive results; ? = inconclusive; / = no result given; & = joins results of further samples; [ ] = remark or other dose.

SMILES	PINK1 expr mod	TRPML1 ag	D2 PAM	Six1-Eya2 blk	TRPML1 blocker	D2 ag
COc1ccc(NC(=O)Cn2c(=O)n(Cc3nc(C)no3)c(=O)c3cc4c(cc32)OCO4)cc1	-0.2%	0.6	/	/	8.2	/
O=C(NCCCn1ccnc1)c1ccc(Cl)cc1[N+](=O)[O-]	0.0%	1.1	-8.6	-5.9	8.8	-1.1
O=C(O)c1sc2cc(C(F)(F)F)cnc2c1-c1ccccn1	1.2%	0.2	2.1	18.7	-9.9	-3.8
CCN1C(=O)C(=CC=CN(C)c2ccccc2)SC1=S	?	?	-5.8	-28.4	-5.0	-2.7
Cc1c(C(=O)NCC2CCCO2)oc2c(Cl)cccc12 (configuration not stated)	0.9%	0.5	-23.9	5.2	-8.3	-5.0
O=C(NC(c1ccccc1)c1ccsc1)C1CCN(Cc2ccc(Cl)c(Cl)c2)CC1 (configuration not stated)	2.4%	-0.1	-16.4	2.5	/	-1.8
O=C(CSc1nc2ccccc2c(=O)n1-c1ccccc1Cl)Nc1cccc(S(=O)(=O)N2CCOCC2)c1	7.0%	1.1	8.9	-2.9	14.2	-3.2
O=C(NC1CCCc2ccccc21)c1ccc2c(c1)sc1nc(-c3ccc(F)cc3)cn12 (configuration not stated)	12.1%	0.0	/	/	-3.4	/
CC(C)Oc1ccc(C(=O)Nc2ccc(-c3nc4ccccc4s3)cc2)cc1	-0.1%	0.3	/	/	21.7	/
CCCCCCOc1ccc(N2C(=O)CC(N3CCN(CCN=CC4=C(O)CC(C)(C)CC4=O)CC3)C2=O)cc1 (configuration not stated)	1.9%	0.2	-5.4	4.0	-8.8	-4.0
CCOC(=O)[C@]12CCCC=C1N(Cc1ccc(Cl)cc1Cl)C(=O)[C@H](CC(=O)NCc1ccc(OC)c(OC)c1)C2	2.6%	-0.1	/	-10.9	/	/
Cc1cccc(-c2c3c(=O)n(C)c(=O)n(C)c3c3c(C)nc4ccccc4n23)c1	1.4%	-0.4	/	/	-0.1	/
CCOC(=O)C1=C(N)c2ccccc2CC1C(C)C (configuration not stated)	8.5%	-0.7	-7.1	-9.6	4.7	0.2
CCOCCCNC(=O)c1ccc(OC(C)=O)cc1	-0.8%	-0.6	0.9	8.1	-16.4	-0.8
COc1ccc(C(=O)c2cn(Cc3ccccc3F)c3cc4c(cc3c2=O)OCO4)cc1	-2.0%	3.6	/	/	-22.1	/
CCOCCCNC1=C(Cl)C(=O)c2ccccc2C1=O	0.4%	1.9	4.1	?	6.1	2.0
Cc1cccc(-c2c3c(=O)n(C)c(=O)n(C)c3cn2CC2CCCO2)c1 (configuration not stated)	1.0%	-0.4	-20.6	3.9	-7.2	1.2
CC1(C)C(=O)Nc2ccccc2N1C(=O)COc1ncnc2ccccc12	0.3%	-0.3	-4.6	1.5	2.8	-1.8
COc1ccc2nc(N3C(=O)C(O)=C(C(=O)c4ccco4)C3c3ccccc3OC)sc2c1 (configuration not stated)	10.8%	-0.1	-5.5	-1.4	-7.9	2.9
O=C(NC(=S)Nc1ccccc1N1CCN(C(=O)c2ccccc2)CC1)c1cccs1	3.1%	0.3	-2.0	-4.9	13.7	1.3
O=C(Oc1ccc(N2C(=O)CCC2=O)cc1)c1ccccc1Cl	-2.3%	0.7	-11.7	-12.2	-14.2	3.2
CCn1cc2nc(SCc3ccc(F)cc3)n(Cc3ccc(Cl)cc3)c(=O)c2n1	4.8%	-0.5	/	/	6.8	/
O=C(COC(=O)CCSc1ccc(Cl)cc1)NCCc1ccccc1	3.2%	-0.2	-21.0	8.2	1.5	-0.9
COC(=O)c1ccc(-c2n[nH]c(=O)c3ccccc23)cc1	-1.7%	-0.3	3.7	-3.0	-5.7	-0.3
CN(C)c1ccc(-c2ccnc3c2CC(C)(C(=O)Nc2ccccc2)O3)cc1 (configuration not stated)	-1.2%	-0.7	-6.8	-5.6	-1.7	-3.1
SMILES	PINK1 expr mod	TRPML1 ag	D2 PAM	Six1-Eya2 blk	TRPML1 blocker	D2 ag
COCCCN1C(=O)C(CC(=O)NC2CCCCC2)CC(C(=O)N(C)C)=C1C (configuration not stated)	0.0%	-0.5	-3.5	3.7	-0.7	-7.2
Cc1ccc(C)c(-n2c3nc(=O)[nH]c(=O)c-3cc3c(C)nn(-c4ccccc4)c32)c1	0.6%	0.8	/	/	-5.6	/
CCNC(=O)C(CC(C)C)NC(=O)C(CO)NC(=O)C1CCC(=O)N1 (configuration not stated)	-1.0%	-0.2	-7.9	5.8	-4.2	-3.1
CN(CCOC(=O)c1ccc2c(c1)OCO2)C(C)(C)C	0.6%	1.6	-13.5	8.3	-5.8	-2.5
COc1ccccc1CNC(=O)CCCn1c(=O)c2ccccc2n(CC(=O)Nc2ccc(C)cc2Cl)c1=O	2.0%	0.1	/	/	56.1	/
Cc1ccccc1-n1nnc2c(=O)oc3ccccc3c21	0.0%	0.8	-6.0	-0.3	14.8	2.4
Cc1cc(C(=O)Nc2cc(Br)ccc2O)on1	0.3%	0.0	-17.2	-0.7	4.5	-4.6
CCOC(=O)c1c(C)[nH]c(C)c1C(=O)COc1ncnc2cc([N+](=O)[O-])ccc12	4.1%	1.2	11.7	-76.2*	5.4	9.2
O=S(=O)(c1cccc2nonc12)N1CCCCC1	1.1%	-0.4	-6.2	-23.1	6.6	-1.9
N#Cc1nc(N2CCCCC2)nc(N2CCOCC2)n1	0.1%	-0.2&-1.0	-21.1	-1.5	-3.3	-1.6
Cc1[nH]c2ccccc2c1C(=O)C(=O)Nc1ccc2c(c1)OCO2	3.2%	-0.1	-3.9	-11.4	1.0	0.5
CC(=O)Nc1cccc(C(=O)N2CCN(S(=O)(=O)c3ccc(C4CCCCC4)cc3)CC2)c1	1.4%	0.4	3.8	-10.1	-2.5	-0.9
COc1ccc(N2CCN(C(=O)c3cn(CC4CCCCC4)nn3)CC2)cc1	-1.5%	-0.3	-0.7	-9.4	-8.1	-2.3
CCOC(=O)C1CN(c2cc3c(cc2F)c(=O)c(C(=O)O)cn3CC)OC1C(=O)OCC (configuration not stated)	0.3%	-0.6	6.6	-2.0	10.3	-2.2
Cc1noc(C)c1C(=O)NCC1COc2ccccc2O1 (configuration not stated)	-1.3%	0.0	-1.4	6.8	-1.5	-4.3
COc1ccc(/C(O)=C2/C(=O)C(=O)N(CCCN(C)C)C2c2ccc(Cl)cc2)cc1OC (configuration not stated)	-1.0%	0.1	-19.9	-2.2	1.5	-1.2
O=C(c1cccc(C(F)(F)F)c1)C1CCCN(C(=O)/C=C/c2cnc[nH]2)C1 (configuration not stated)	2.1%	-0.2	-0.7	-2.2	-9.1	-3.3
CCCNc1ncnc2onc(C)c12	3.5%&2.5%	0.1&1.1	-5.4	-5.6	11.4&11.6	-3.7
CCOC(=O)c1ccc(NC(=O)COc2ccccc2OC)cc1	-1.2%	-0.7	7.2	7.2	-3.3	-1.3
COC(=O)Cn1cnc2c(nnn2-c2ccc(OC)cc2)c1=O	2.1%	/	-7.4	-16.6	/	0.1
CC1CCN(CCc2nc3cc(NC(=O)C(C)C)ccc3n2C)CC1	0.7%	/	-16.1	10.8	/	-4.1
COc1ccc(C(=O)Nc2nc(CC(=O)NCCc3ccccc3)cs2)cc1	-0.7%	2.1	0.5	-4.6	8.6	0.4
CCOc1ccc2nc(NC(=O)CSc3nc4c(c(=O)n(C)c(=O)n4C)n3CC)sc2c1	?	1.4	-11.0	3.6	0.4	5.1
CCN1CCN(Cc2ccc(NC(=O)c3ccc(C)c(NC(=O)C4=NN(c5ccccc5)C(=O)C4)c3)cc2C(F)(F)F)CC1	1.0%&5.0%	-0.1&0.5	-6.5&-11.1	-0.6&1.4	-9.8&-0.3	-0.8&-2.0
CC(C)(C)c1ccc(/C=N/Nc2nncn2N)cc1	0.8%	0.2	15.4	-12.2	17.2	?

Six1-Eya2 blk: entries above that show a hit
SMILES,PINK1 expr mod,D2 PAM,Six1-Eya2 blk,TRPML1 blocker,D2 ag
CCOC(=O)c1c(C)[nH]c(C)c1C(=O)COc1ncnc2cc([N+](=O)[O-])ccc12,4.1%,11.7,-76.2*,5.4,9.2

(listing goes on)
SMILES	PINK1 expr mod	TRPML1 ag	D2 PAM	Six1-Eya2 blk	TRPML1 blocker	D2 ag
CCn1c(COc2ccccc2)nnc1SCC(=O)Nc1ccc2c(c1)OCCO2	-0.8%	-1.3	-10.8	-3.9	-8.6	-5.2
O=C(CSc1ncnc2c1oc1ccccc12)NC1CCCC1	-0.1%	-0.7	-15.2	-1.4	-7.4	-4.5
CC(C)c1ccc(-c2noc(SCC(=O)N(C)c3ccc(F)cc3)n2)cc1	16.7%	5.1	/	/	21.2	/
Cc1cccc(NC(=O)COC(=O)Cc2c[nH]c3ccccc23)c1C	0.5%	-0.4	-12.0	3.3	-13.8	-0.2
Cc1ccc(-n2ncc3c2CC(C)(C)CC3NC(=O)CCc2ccc(=O)[nH]n2)cc1 (configuration not stated)	-0.3%	-0.7	-3.8	-0.6	-0.5	-3.2
Cc1cccc(NC(=O)CSc2nc3c(oc4ccccc43)c(=O)n2-c2ccc(F)cc2)c1	-0.1%	-0.2	/	/	10.3	/
O=c1c2ccc([N+](=O)[O-])cc2ncn1Cc1ccccc1C(F)(F)F	4.5%	-1.3	14.8	-24.8	0.0	2.7
Cc1cc2oc(C(=O)N(Cc3ccco3)Cc3ccccc3Cl)c(C)c2cc1C	6.3%	-0.4	/	/	0.8	/
Nc1c(C(=O)NCCN2CCOCC2)c2nc3ccccc3nc2n1-c1cccc(F)c1	0.1%	-0.9	-25.6	24.7	-0.1	-3.1
Cc1ccn2cc(C(=O)N3CCN(c4cnn(-c5ccccc5)c(=O)c4Cl)CC3)nc2c1	1.6%	-0.2	-6.1	3.8	28.6	0.1
O=C(CCSCc1cccc(F)c1)NCc1ccc(F)cc1	2.5%	1.2	-3.8	0.7	-6.5	-1.7
CCOC(=O)c1ccccc1NC(=O)/C=C/C(=O)O	-1.3%	-0.7	5.1	4.6	3.9	-0.6
CC(C)=CCN1CCN(Cc2ccc(Oc3ncccn3)cc2)CC1CCO (configuration not stated)	0.1%	0.1	-6.7	4.5	9.6	-1.7
NC1=NC(=O)/C(=C/c2ccc(-c3ccc(S(N)(=O)=O)cc3)o2)S1	31.6µM*	0.0	-3.0	?	-6.7	0.6
O=C(CN1CCOCC1)Nc1ncccn1	-0.9%	0.3	-4.8	3.7	-3.8	-2.5
O=C(Oc1ccc(-c2cnc3ccccc3n2)cc1)c1ccc(Br)o1	-3.1%[38.3 µM]	0.9	-2.7	-1.0	-2.1	-1.3
COc1cccc(N2CC(=O)N(NC(=O)c3sc4nc(C)cc(C)c4c3N)CC2=O)c1	1.6%	0.8	9.8	-5.0	-16.2	0.9
